Compound activity: PubChem BioAssay, several laboratories
Mtb betalactam: beta-lactam sensitization of Mtb H37Rv | 0.27% of 330,000 active | M. tuberculosis H37Rv growth with meropenem, percent inhibition; hits of this screen are not shown here | AID 434955 | inhibition, % at 25 µM;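 active = about 74% or more and at least 40 points above the plate without the antibiotic, then above 30% in a dose series; inconclusive = first-round hits that could not be retested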;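 note: growth measured after seven days incubation then overnight dye step; 0% = bacteria only wells and 100% = bacteria with antibiotic; twin plates without the antibiotic show which effects depend on it; some results filed as inactive read as strong as hits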
Mtb H37Rv: M. tuberculosis H37Rv growth inhibitors, H37Rv strain (AID 1626) | M. tuberculosis H37Rv growth inhibition; higher % means a stronger effect | 0.95% of 220,000 active | one-dose inhibition, % at 10 µM; IC50 in µM for titrated hits;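 active = confirmed in a dose series; inconclusive = inhibition above 80% but not taken into the dose series; inactive = below 80% or under 30% at every dose of the series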;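 note: bacteria incubated seven days before Alamar blue readout; 0% = bacteria only wells and 100% = bacteria with antibiotic wells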
RecA splice inh: inhibitors of M. tuberculosis RecA intein splicing. P9WHJ3. cell-free RecA intein splicing, fluorescence. inhibition, %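 (about 9 µM by stock and volumes)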. 0.75% of 290,000 active. AID 2221; in the data active = inhibition above about 30%; inconclusive = no clear call, values can overlap the other calls;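 note: 0% = vehicle wells and 100% = reference inhibitor control wells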
Target sequence (P9WHJ3 whole entry, looked up, canonical isoform): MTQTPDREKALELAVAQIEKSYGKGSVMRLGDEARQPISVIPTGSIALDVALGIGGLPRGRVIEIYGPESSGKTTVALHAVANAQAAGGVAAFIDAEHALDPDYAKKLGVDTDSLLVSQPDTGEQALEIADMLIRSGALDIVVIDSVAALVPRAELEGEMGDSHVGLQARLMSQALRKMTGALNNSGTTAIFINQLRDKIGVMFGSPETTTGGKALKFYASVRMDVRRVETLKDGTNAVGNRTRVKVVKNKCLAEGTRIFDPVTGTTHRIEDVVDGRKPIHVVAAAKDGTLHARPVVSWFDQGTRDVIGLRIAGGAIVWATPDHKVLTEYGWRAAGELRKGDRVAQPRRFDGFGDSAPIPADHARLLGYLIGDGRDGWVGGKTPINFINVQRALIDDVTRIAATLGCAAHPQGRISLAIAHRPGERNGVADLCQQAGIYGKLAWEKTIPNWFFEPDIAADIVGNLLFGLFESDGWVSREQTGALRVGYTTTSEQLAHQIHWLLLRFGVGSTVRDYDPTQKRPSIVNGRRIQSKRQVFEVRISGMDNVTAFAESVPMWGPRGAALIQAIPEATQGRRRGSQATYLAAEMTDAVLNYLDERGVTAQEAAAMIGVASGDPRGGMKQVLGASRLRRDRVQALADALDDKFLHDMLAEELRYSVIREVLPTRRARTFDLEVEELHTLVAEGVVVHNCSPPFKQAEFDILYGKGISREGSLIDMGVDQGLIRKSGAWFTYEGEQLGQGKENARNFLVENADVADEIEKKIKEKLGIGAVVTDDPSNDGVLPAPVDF
Arbovirus anti: blocks arbovirus infection; arbovirus infection cell-based antiviral screen; inhibition, % at 10 µM; AID 1251; 0.37% of 200,000 active;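 active = inhibition from about 30%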;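 note: bluetongue infection of BSR cells; cell survival read as ATP light after 72 h; 0% = infected wells without compound and 100% = uninfected wells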
YopH PTP inh: blocks Yersinia enterocolitica YopH tyrosine phosphatase | AID 898 | fluorescence Ex485/Em525 | inhibition, %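 (about 10 µM by stock and volumes)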 | 0.16% of 140,000 active;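 active = inhibition of 50% or more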;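 note: controls were vehicle for no effect and minimum signal wells for full effect; inactives centre near -20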
Arbovirus anti repeat: also measured in Arbovirus anti; calls as there; inhibition, %; measured here: 10K subset replicate screen; many hits read low in the repeat;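 first of two repeat runs on a subset; 0% = infected and 100% = uninfected wells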
* marks the source's active call; other numbers are inactive results; ? = inconclusive; nt = no result given. The list is partial, so the mix of outcomes need not match the whole.

SMILES	Mtb betalactam	Mtb H37Rv	RecA splice inh	Arbovirus anti	YopH PTP inh	others
COC(=O)c1c(NC(=O)C2CC=CCC2C(=O)O)sc(C(N)=O)c1C (configuration not stated)	-12	nt	-2.8	-6	0
Cc1nn(C(C)CC(=O)O)c(C)c1C (configuration not stated)	-5	-7%	-0.1	5	-23
CCc1ccc2nc3sc(C(=O)N4CCc5ccccc54)c(N)c3cc2c1	2	0%	-0.5	-4	-4
CCn1c(=O)n(CC(=O)NCC2CCCO2)c(=O)c2c3c(sc21)COC(C)(C)C3 (configuration not stated)	-3	nt	4.5	nt	nt
COc1cccc(NC(=O)c2cncs2)c1	-3	nt	-1.6	nt	nt
NC(=S)N/N=C\c1c2ccccc2cc2ccccc12	-2	1%	nt	-35	-8
Cc1ccc(CNC(=O)CCS(=O)(=O)c2ccc(Br)s2)o1	-5	-6%	5.0	3	22
Cc1ccc(Nc2nc(C)cc(C)n2)c(Br)c1	0	6%	0.7	0	-8
Cc1ccc(-n2c3c(cc(C(=O)NCc4ccco4)c2=O)C(=O)CCC3)cc1	-4	-5%	-0.4	-6	nt
COC(=O)c1ccc(NC(=O)CS(=O)(=O)c2ccccc2)cc1	0	nt	1.8	nt	nt
CCOC(=O)c1c(NC(=O)c2ccccc2Br)sc2c1CCc1ccccc1-2	41	3%	4.6	-11	8
CCOc1ccc(NC(=O)CN(C)C(=O)c2c(-c3c(F)cccc3Cl)noc2C)cc1OCC	-5	nt	-1.3	nt	nt
CCN1CCN(C(=O)C2=C(C(=O)O)CCCC2)CC1	-7	0%	0.2	0	-28
C=CCOC(=O)C1=C(C)N=C2SCCC(=O)N2C1/C=C/c1ccccc1OC (configuration not stated)	3	-2%	-0.1	-1	nt
O=C(/C=C/c1ccc2c(c1)OCO2)Nc1nc(-c2ccc(F)cc2)cs1	-3	-2%	-12	-19	-10
CCOc1ccc(C2C(C(=O)c3cccs3)=C(O)C(=O)N2CCCn2ccnc2)cc1 (configuration not stated)	-4	nt	nt	nt	-6
CCCCCCCCCCCC(=O)NC(C(=O)OCC)C(O)c1cccc([N+](=O)[O-])c1 (configuration not stated)	-4	-10%	2.0	6	-36
O=C(Nc1nnc(C2CCCCC2)s1)c1ccc(Br)s1	-3	-1%	-0.1	18	-5
CCOC(=O)N1CCN(S(=O)(=O)c2cc(Cl)c(OC)cc2Cl)CC1	-5	-6%	1.6	10	-33
Cc1cccc(C(=O)C2CCOC(C)(C)C2)c1 (configuration not stated)	0	-9%	-0.8	nt	nt
O=C(N1CCOCC1)n1nnc2ccccc21	1	nt	1.9	-2	-46
COc1cc(N2C(=O)NC3CC2(C)Oc2ccccc23)cc(OC)c1OC (configuration not stated)	-1	4%	-1.1	6	-44
O=C(NCCOc1ccccc1Cl)C(=O)NCCOc1ccccc1Cl	0	1%	-0.4	0	nt
O=C(Cn1nnc(-c2ccc([N+](=O)[O-])cc2)n1)NNC(=O)c1ccccc1	-5	nt	5.7	nt	nt
CC(=O)c1ccc(N2CCN(C(=O)c3nn(Cc4ccccc4)c(=O)c4ccccc34)CC2)cc1	94	76%	-2.8	8	nt
CCOc1c(Br)cc(CNC2CCCCCCC2)cc1OC	1	9%	1.1	-2	nt
COc1cc(NC(=O)c2cc3c(Cl)nc4ccccc4c3s2)cc(OC)c1OC	99	42%	-1.9	9	-29
O=C(O)c1cc2n(n1)CCN(Cc1ccccc1Cl)C2=O	2	2%	0.0	1	nt
Cc1cc(=O)oc2cc(OC(C)C(=O)NCc3ccccn3)ccc12 (configuration not stated)	-2	nt	-3.0	nt	nt
COc1cccc(-c2cccc(NC(=O)C3CCN(Cc4ccc(CO)o4)CC3)c2)c1	-4	nt	1.2	nt	nt
Cc1ccc(-n2c(SCC(=O)NCCN3C(=O)CSC3=O)nnc2-c2ccccc2F)cc1	-9	33%	-1.3	-4	-11
COC(=O)c1cc2oc3ccccc3c2n1CC(=O)N1CCCc2ccccc21	0	-18%	1.5	-4	-7
CCc1cc(C(=O)COc2ccc(F)cc2)c(O)cc1O	2	9%	-1.1	6	nt
CSCC[C@H](N)C(=O)N1CCC(C(=O)N[C@@H](C)C(=O)NCc2ccc(F)cc2)CC1	-4	nt	0.4	nt	nt
COc1cc(OC)c2c(-c3ccccc3)cc(=O)oc2c1C(CC(=O)N1CCN(c2ccccc2)CC1)c1ccc(N(C)C)cc1 (configuration not stated)	5	-1%	8.6	nt	nt
Cc1ccc(NC(=O)CN(C)C(=O)c2cccc(Br)c2)cc1	-6	nt	6.1	nt	nt
O=C(COC(=O)C1CCN(c2ccc(C(F)(F)F)cn2)CC1)Nc1cccc(F)c1	-10	nt	0.3	nt	nt
CC(NC(=O)c1cc(F)c(F)c(F)c1F)c1ccc(-n2ccnc2)cc1 (configuration not stated)	-3	nt	0.5	nt	nt
COc1ccc2cc(C(C)=O)c(=O)oc2c1	0	-8%	-14	-1	-29
O=C(Nc1ccc2oc(-c3ccccc3Cl)nc2c1)c1cncc(Br)c1	3	-3%	nt	-4	-5
Cc1nn(-c2ccccc2)nc1C(=O)NNC(=O)c1ccc(C(F)(F)F)cc1	98	?	1.4	nt	nt
COc1ccc(/C=N\NC(=O)c2ccccc2)cc1COc1ccc(F)cc1	33	nt	-1.6	nt	nt
CCC(=O)c1ccc(N2CCC(C)CC2)c(F)c1	-10	6%	0.8	-3	nt
O=C(Cc1cccs1)N/N=C/c1ccco1	4	-13%	-0.8	-5	-32
CC(C)c1nc2c([nH]1)c(=O)n(C)c(=O)n2C	1	-9%	1.7	nt	nt
C1=CCC(CN2CCNCC2)CC1 (configuration not stated)	-4	0%	-0.8	9	nt
O=c1cc(CN2CCN(c3cccc(Cl)c3)CC2)c2cc3c(cc2o1)CCCC3	-12	1%	nt	2	-7
CCOC(=O)C1CCN(c2ccc(C(=O)O)cc2[N+](=O)[O-])CC1	-1	-6%	-1.1	-4	-9
O=C(NCCCO)C(=O)c1c(-c2ccccc2)cc2ccccn12	15	-2%	nt	5	nt
O=C(CN1CCN(S(=O)(=O)c2ccc(F)cc2)CC1)Nc1ccc(F)cc1F	-3	nt	11	nt	nt
COc1ccc(CCn2c(=N)c(S(=O)(=O)c3ccccc3)cc3c(=O)n4ccccc4nc32)cc1	-3	nt	2.4	nt	nt
CCOC(=O)c1ccc(NC(=O)CN2CCN(c3ccccc3)CC2)cc1	65	72%	0.3	-2	-15
CC(=O)NCCc1nc2cc(NC(=O)COc3cccc(C)c3)ccc2n1C	3	nt	0.5	nt	nt
C=CCn1c(SCC(=O)Nc2cccnc2Cl)nnc1-c1ccccc1F	-6	3%	3.6	-2	-31
O=C(Cc1coc2ccc3ccccc3c12)NCc1ccccc1	13	-5%	0.7	-18	-8
O=C(CN1CCN(S(=O)(=O)c2ccc(Cl)cc2)CC1)Nc1ccc2c(c1)CCC2	-2	10%	7.1	-20	-22
COc1cccc(CNC(=O)CCS(=O)(=O)c2cccs2)c1	-10	-4%	-0.1	10	23
COc1cc(C(=O)Nc2ccc(C)cc2)c(-n2cnnn2)cc1OC	-2	2%	1.4	6	nt
CCOCCCNC(=O)C(Cc1ccccc1)NS(=O)(=O)c1ccc2c(c1)c(=O)n(C)c(=O)n2C (configuration not stated)	8	-10%	-2.4	-3	nt
CCOc1ccccc1N1CCN(c2nc3ccccc3nc2C(C#N)C(=O)OC(C)C)CC1 (configuration not stated)	5	nt	-0.4	nt	nt

Overlap with the part before: 2 compounds, then new ones.
SMILES	Mtb betalactam	Mtb H37Rv	RecA splice inh	Arbovirus anti	YopH PTP inh	others
CCOCCCNC(=O)C(Cc1ccccc1)NS(=O)(=O)c1ccc2c(c1)c(=O)n(C)c(=O)n2C (configuration not stated)	8	-10%	-2.4	-3	nt
CCOc1ccccc1N1CCN(c2nc3ccccc3nc2C(C#N)C(=O)OC(C)C)CC1 (configuration not stated)	5	nt	-0.4	nt	nt
CCOC(=O)N1CCN(CC(=O)c2ccc3c(c2)CCN3C(C)=O)CC1	-3	-2%	-5.4	6	-27	Arbovirus anti repeat=5
CCn1c(=S)sc2c(=O)n(CC(=O)Nc3ccc(OC)cc3)c(C)nc21	-5	nt	0.7	nt	nt
O=C(Cn1cnc2sc(-c3ccccc3)cc2c1=O)NCCc1ccccc1	5	nt	4.2	-29	-2
CC(C)C(=O)c1cc2c(cc1NC(=O)Nc1cccc3ccccc13)OCCO2	2	nt	0.8	-1	-20
CNC(=O)Oc1cccc(-c2cn3cc(Cl)ccc3n2)c1	4	0%	-1.7	7	-30
C=CCN1C(=O)NC(=O)/C(=C/c2ccc(OC)c(COc3ccc(NC(C)=O)cc3)c2)C1=O	22	-2%	-2.8	nt	nt
O=S(=O)(c1cccc(NC(=S)N2CCN(c3ccc(F)cc3)CC2)c1)C(F)F	-7	3%	1.2	20	0
O=C(COc1ccc2ccccc2c1)Nc1ccccc1C(=O)O	7	nt	2.0	nt	nt
CC(=O)c1cccc(NC(=S)N2c3ccccc3CC2C)c1 (configuration not stated)	4	5%	nt	-1	nt
CCOc1ccc(NC(=O)CCCn2c(=S)[nH]c3ccsc3c2=O)cc1	-5	2%	2.9	-4	nt
O=C(Nc1ccccc1)N1CCc2scc[n+]2-c2ccccc21	-4	-2%	1.5	-7	-39
O=c1[nH]c2ccc(NS(=O)(=O)c3ccc(Cl)cc3)cc2[nH]1	1	2%	-3.2	1	nt

Entries from the list above that contain an aryl thioether with sulfur outside any ring (two):
SMILES	Mtb betalactam	Mtb H37Rv	RecA splice inh	Arbovirus anti	YopH PTP inh	others
Cc1ccc(-n2c(SCC(=O)NCCN3C(=O)CSC3=O)nnc2-c2ccccc2F)cc1	-9	33%	-1.3	-4	-11
C=CCn1c(SCC(=O)Nc2cccnc2Cl)nnc1-c1ccccc1F	-6	3%	3.6	-2	-31

(continued)
SMILES	Mtb betalactam	Mtb H37Rv	RecA splice inh	Arbovirus anti	YopH PTP inh	others
CCCCN1CNC(=S)N(Cc2ccccc2)C1	-4	0%	1.2	-9	-20
COc1ccc(C2=CC(c3ccc(F)cc3)n3nnnc3N2)cc1 (configuration not stated)	9	nt	-30	7	-16
CCOC(=O)c1nn(-c2ccc(Cl)cc2)c2nc(-c3ccc(C)cc3)c(C#N)c(=O)n12	16	7%	-3.1	2	3
Cc1ccc(C(=O)NCCc2ccncc2)cc1	nt	7%	0.0	2	-20
Cc1ccc2[nH]cc(C(=O)CN3CCOCC3)c2c1	-9	-4%	-0.5	7	-1
CCOc1ccc(NC(=O)Nc2ccc3c(c2)CCC3)cc1	-18	nt	-1.4	nt	nt
C=CCN(c1ccccc1)S(=O)(=O)c1cccc(C(=O)Oc2ccc3c(C)cc(=O)oc3c2)c1	69	78%	-3.6	-10	12
CCc1ccc(CNC(=O)C2CCN(S(=O)(=O)N3CC(C)CC(C)C3)CC2)cc1 (configuration not stated)	-6	nt	-6.0	nt	nt
CC(C)(C)NCc1cc(Br)ccc1OCc1cccs1	-14	5%	-2.0	10	-40
COc1ccc(OC)c(S(=O)(=O)n2c([N+](=O)[O-])cnc2C)c1	1	nt	1.5	nt	nt
O=C1c2ccccc2C(=O)N1CC(O)COc1ccc(Br)cc1 (configuration not stated)	-8	nt	-5.2	nt	nt
Cc1cc(NC(=O)CSc2nnc(-c3ccco3)o2)no1	4	-4%	1.4	2	-15
OC(CN1CCNCC1)Cn1c2ccccc2c2ccccc21 (configuration not stated)	-3	nt	-5.3	nt	nt
O=S(=O)(NCc1ccccc1)c1ccc(S(=O)(=O)N2CCCC2)cc1	6	3%	-1.4	11	nt
O=[N+]([O-])c1cccc(S(=O)(=O)Nc2nc3ccccc3nc2Nc2cccc(S(=O)(=O)N3CCCCC3)c2)c1	nt	14%	21	-38	-38
CC(C)(C)NC(=O)c1cccc2c1C(=O)c1ccccc1-2	10	10%	-5.6	nt	nt
CCCC(=O)NCCCc1nc2ccccc2n1C	-6	-3%	0.5	4	-21	Arbovirus anti repeat=5
CCOC(=O)CCCC(=O)N1CCOCCOCCN(C(=O)CCCC(=O)OCC)CCOCCOCC1	-2	-2%	3.3	6	nt
COc1cc(C(=O)OCC(C)=O)cc(NC(=O)c2ccco2)c1OC	3	1%	1.7	13	nt
C[C@@H]1CC=C[C@H]2[C@H]1C(=O)N(Cc1ccccc1)[C@H]2c1ccc(/C=C/c2ccccc2)cc1F	84	4%	2.1	nt	nt
Cc1ccc(/C(N)=N/OC(=O)N2c3ccccc3Sc3ccccc32)cc1	97	?	12	nt	-11
N#Cc1c(N)nc2c(c1-c1ccco1)CCCCC2	24	-4%	-1.1	nt	-26
Cn1nc(C(F)(F)F)c(C#N)c1N1CCN(c2cccc(C(F)(F)F)c2)CC1	-11	7%	-0.3	3	-23
CCSc1ccccc1C(=O)Nc1ccc(S(=O)(=O)NC(C)=O)cc1	4	6%	7.1	2	nt
COc1ccc(NC(C)=O)cc1S(=O)(=O)NC(Cc1ccccc1)C(=O)O (configuration not stated)	-1	11%	-1.4	nt	nt
Cc1cccc(NC(=S)NC(=O)Cc2ccccc2)c1C	-1	nt	0.6	nt	nt
